RN4220 kill = kills Staphylococcus aureus RN4220 | inhibition, % (concentration not given with the values) | AID 1259311 | S. aureus RN4220 growth, OD600, 16 h | actives 0.33% (n = 330,000);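 active = z-score of -3 or lower and OD600 up to 0.18 on both plates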;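 note: plate controls were untreated cells for no effect and reference antibiotic for full effect; stock transfer was 100 nL into about 80 µL; one replicate is shown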
ugtP null kill = compounds lethal to S. aureus RN4220 ugtP deletion mutant | OD600 growth, 16 h; some inactives read as strong as hits | growth inhibition, % (concentration not given with the values) | actives 0.54% (n = 330,000);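 active = z-score under -3 and OD600 up to 0.15 on both plates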;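 note: plate controls were untreated wells for no effect and antibiotic for full effect; wells of about 80 µL received 100 nL stock; the first replicate is given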
PrP 5UTR inh = suppresses PrP 5' UTR mRNA reporter expression; cell-based PrP 5' UTR mRNA reporter, plate reader; inhibition, % (no concentration beside the values); actives 0.35% (n = 340,000); AID 488862;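 active = every replicate at 50% or more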;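 note: 0 = median of the neutral control wells; tested in H4 reporter cells; numbers are from one replicate; inactives centre near -14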
Mtb hypoxia inh = inhibitors of hypoxia-regulated fluorescent reporter in Mycobacterium tuberculosis. M. tuberculosis hypoxia-regulated fluorescent reporter, fluorescence. fluorescence inhibition, % (test concentration not listed). actives 0.1% (n = 300,000). AID 1159583;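 active = 35 to 45% if threefold the growth effect, above 45% if 1.5-fold the growth effect; inactive = the rest, general growth blockers included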;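 note: wells of about 50 µL received 100 nL stock; 0% = vehicle wells and 100% = reference inhibitor wells; whole bacteria with a GFP reporter of the hypoxia response; strong numbers were not always called active; many hits fall short of the cut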
Autofluor counter = counter-screen for toxin protease inhibitors: compound fluorescence. compound autofluorescence counterscreen, microsphere flow cytometry; hits give high values. fluorescence intensity (concentration not given with the values). actives 3.1% (n = 360,000). AID 624483;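 active = at least 3 SD above the mean of all compounds, about 16000 in these data; inconclusive = too few beads counted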;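 note: 100 nL of 1 mM stock went into each well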
BJeLR viability = BJeLR cell viability loss; AID 1554; actives 0.17% (n = 300,000); inhibition, % (concentration not given with the values); BJeLR (HRASV12) viability, CellTiter-Glo ATP luminescence, 48 h; reference of the scale not given here;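 active = replicate mean above 50%; inconclusive = above 50% but judged a plate artefact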;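 note: 50 nL library stock added to about 25 µL; numbers are from one replicate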
Mtb hypoxia inh growth = also measured in Mtb hypoxia inh; calls as there; growth inhibition, %; measured here: M. tuberculosis growth (absorbance);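 0% = vehicle and 100% = reference antibiotic; read after six days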
Starred values were filed as active, the others as inactive; ? = inconclusive; . = no result given; & = joins results of further samples.

compound	RN4220 kill	ugtP null kill	PrP 5UTR inh	Mtb hypoxia inh	Mtb hypoxia inh growth	Autofluor counter	BJeLR viability
COCCN1CCN(C(=O)C2CCC(=O)N(CCc3cccc(F)c3)C2)CC1 (configuration not stated)	-2.1	1	-5	0	7	5870	1
Cn1c(CNC(=O)CCNC(=O)c2cccc(Cl)c2)cc(=O)n(C)c1=O	-1.4	-1	-1	-2	-5	5479	6
C/C(=N\NC(=O)CSCc1ccccc1Cl)c1cc(O)ccc1O	.	.	-35	.	.	4275	-5
CCCNC(=O)c1ccc2c(c1)ncn2-c1ccccc1OC	-5.7	-7	-24	.	.	4369	-1
Cc1nnc(SCC(=O)NC2CC2)n1CCc1ccccc1	3.8	4	-17	.	.	4429	3
C[C@]12c3[nH]c4ccc(Cl)cc4c3CCN1C(=O)[C@@H](CC(=O)NCc1cccc(C(F)(F)F)c1)C[C@@H]2C(=O)N1CCCCC1	2.4	-1	-12	-7	4	3585	.
COc1ccc2cc(C(=O)NCc3ccccc3)c(=Nc3ccc(C(=O)O)cc3)oc2c1	22	22	-24	6	14	3931	3
Cc1ccc(NC(=O)c2ccc(-c3nn(C)c(=O)c4ccccc34)cc2)cc1	-2.6	-11	-20	15	6	9116	3
O=c1c2c([nH]c3ccccc13)CCC2	5.7	14	-15	10	5	3420	3
Cc1cnc(=O)[nH]c1SCc1cccc(C(F)(F)F)c1	5.1	1	-12	-1	-3	5325	-8
CC1(C)CC(=O)C/C(=N\NC(=O)Cc2ccccc2)C1	.	.	-13	.	.	6917	-5
CSc1nncc(/C(C)=N\Nc2ccccc2)n1	.	.	-26	.	.	3282	-8
COc1cc(OC)cc(-n2nnnc2SCC(=O)Nc2nc3c(s2)CCCC3)c1	-6.2	-9	-19	10	8	3115	-7
C=CCn1c(C)cc(C(=O)CSc2n[nH]c(N)n2)c1C	7.1	0	-3	7	0	15961	-8
CN1CCN(CC(=O)Nc2ccc([N+](=O)[O-])cc2C(=O)c2ccccc2)CC1	2.8	-4	-12	10	-2	2042	1
O=C(CSc1nc(N2CCCCC2)nc(N2CCCCC2)n1)N1CCc2ccccc21	1.3	0	.	.	.	.	-5
Cc1ccc(CNC(=O)CNC(=O)c2ccc(C(C)(C)C)cc2)n1C	-3.5	-8	.	-5	13	6383	.
CC(C)OCC(O)CN1CCN(CC(O)COc2ccc3c(c2)OCO3)CC1 (configuration not stated)	6.9	12	-4	9	8	15980	0
Cc1nc(-c2ccc(NC(=O)C(C)(C)C)cc2)c(-c2ccccc2)o1	-0.8	10	-10	12	4	3624	3
Cc1nn(-c2ccccc2)c(C)c1-c1nnc(C(F)(F)F)o1	2.4	-3	-40	4	0	3768	-8
CC1(C)CC(=O)C2=C(C1)Nc1cc3c(cc1C2c1ccc2c(c1)OCO2)OCO3 (configuration not stated)	-3.8	8	-40	.	.	5479	-4
CCCCOc1c(C(=O)Nc2ccccc2)nnn1-c1ccccc1	4.0	-26	-11	12	6	3237	-5
COc1cc(OC)cc(C(=O)NC(=S)Nc2ccc3[nH]c(=O)[nH]c3c2)c1	4.7	3	-14	9	-2	3410	10
COc1cc2c(cc1OC)C(C)N(CC(=O)Nc1ccc(C)c(S(=O)(=O)N3CCOCC3)c1)CC2 (configuration not stated)	1.9	4	-20	-1	10	?	2
CCOc1ccc(NCC(=O)NN=C/C=C/c2ccccc2)cc1	-3.7	-5	.	2	1	.	.
COc1ccccc1OCC(O)CO (configuration not stated)	3.8&2.0	3&-5	-5	-7&1	0&-2	6081	-11
COc1ccc(C=NNC(=O)c2cccnc2)cc1CN1CCN(c2ccc(F)cc2)CC1	30	16	.	-4	-5	.	.
O=C(COC(=O)C1CCC1)Nc1ccc(Oc2ccccc2)cc1	-4.2	-9	-14	-4	-2	15201	0
CC(=O)c1cccc(S(=O)(=O)N2CCn3cccc3C2C)c1 (configuration not stated)	8.5	5	-29	9	5	4371	.
COc1cccc(C=NNC(=O)CCNc2n[nH]c(=O)[nH]c2=O)c1OC	4.6	4	.	-4	2	.	.
Cc1[nH]ccc(=O)c1Oc1ncc(C(F)(F)F)cc1Cl	2.4	13	-22	-2	4	2039	-4
N#Cc1ccccc1COC(=O)c1ccc2c(c1)OCCO2	2.7	-4	-16	-10	-4	4048	.
Cc1c(C(=O)N(Cc2ccc(F)cc2)C2CCS(=O)(=O)C2)oc2ccccc12 (configuration not stated)	3.7	4	-25	3	0	6011	4
CC(=O)N1CCN(c2ccc(NCc3ccc(C)cc3)cc2)CC1	0.1	0	-5	8	12	3425	0
COc1ccccc1OCC(=O)NN=Cc1cccc2cccnc12	1.6	3	.	3	-3	.	.
CCOC(=O)N1CCN(C(=O)c2ccc3nc(SCc4ccc(F)cc4)n(C)c3c2)CC1	29	9	8	2	-2	2647	-4
CCCCOc1ccc(SCCCN2CCOCC2)cc1	1.3	13	-28	2	6	4097	.
CCSCc1nc2ccccn2c1Br	4.7	-2	-33	13	3	4292	.
CCOc1ccc(N2C(=O)CC(N3CCN(c4ccc(Cl)cc4)CC3)C2=O)cc1 (configuration not stated)	2.4	9	-14	-1	-3	3341	7
CCc1nnc(NC(=O)CSc2nnc(-c3ccoc3C)n2-c2ccccc2)s1	12	9	-11	9	7	4418	-5
O=C(NCCC1=CCCCC1)c1cc(COc2c(F)cccc2F)on1	2.6	15	-17	5	4	5517	-3
CSc1ccc(S(=O)(=O)NCC(=O)OCC(=O)N(C)CC(=O)Nc2ccc(F)cc2)cc1[N+](=O)[O-]	5.4	2	-12	17	14	3410	.
Cn1cnnc1SCC(=O)Nc1ccccc1Oc1ccccc1	3.5	3	-19	-7	-11	3873	-4
OCC1OC(O)C(O)C1O (configuration not stated)	1.9	-1	.	2	-9	.	.
CCOC(=O)c1cc2sccc2n1CC(=O)N1CCc2ccccc21	5.6	-3	-56	-3	0	6860	-14
Cc1cc(Nc2ccc(F)cc2Cl)n2ncnc2n1	5.1	8	-54	.	.	5832	-8
CCOC(=O)c1cnc(SCc2nc(N)nc(Nc3ccc(C)cc3)n2)nc1N	1.3	3	-14	.	.	4448	-1
Cc1ccccc1NC(=O)CSc1nc2c(c(=O)n(C)c(=O)n2C)n1C	6.7	0	-14	-14	-6	6037	-6
COc1ccc2nc(NC(=O)CSc3nccc(C)n3)sc2c1	-1.5	17	-37	12	9	8484	8
CCn1cc(C(=O)NC2CCc3ccccc32)c(=O)c2ccc(C)nc21 (configuration not stated)	2.7	7	.	7	3	.	4
Cc1ccc(C)c(NC(=O)CSc2n[nH]c(-c3ccccn3)n2)c1	-0.7	-5	-13	3	11	3563	-2
Oc1c(CN2CCOCC2)cc(CN2CCOCC2)c(O)c1O	0.7	5	-23	5	6	3583	.
Oc1ccccc1C(Nc1nccs1)c1ccc2cccnc2c1O (configuration not stated)	12	-2	25	13	-8	4500	40
O=C(Cn1nc(-c2ccccc2)c2ccccc2c1=O)NCC1CCCO1 (configuration not stated)	1.2	0	-8	.	.	4161	-2
O=C(COC(=O)c1cccc(S(=O)(=O)N2CCCCC2)c1)NC1CCCc2ccccc21 (configuration not stated)	-2.2	-4	-9	19	1	2099	0
O=C(CCN1CCN(C/C=C/c2ccccc2)CC1)Nc1cccc(F)c1	-1.5	1	-10	3	3	3523	-4

Nine successive records from above:
compound	RN4220 kill	ugtP null kill	PrP 5UTR inh	Mtb hypoxia inh	Mtb hypoxia inh growth	Autofluor counter	BJeLR viability
CCOC(=O)N1CCN(C(=O)c2ccc3nc(SCc4ccc(F)cc4)n(C)c3c2)CC1	29	9	8	2	-2	2647	-4
CCCCOc1ccc(SCCCN2CCOCC2)cc1	1.3	13	-28	2	6	4097	.
CCSCc1nc2ccccn2c1Br	4.7	-2	-33	13	3	4292	.
CCOc1ccc(N2C(=O)CC(N3CCN(c4ccc(Cl)cc4)CC3)C2=O)cc1 (configuration not stated)	2.4	9	-14	-1	-3	3341	7
CCc1nnc(NC(=O)CSc2nnc(-c3ccoc3C)n2-c2ccccc2)s1	12	9	-11	9	7	4418	-5
O=C(NCCC1=CCCCC1)c1cc(COc2c(F)cccc2F)on1	2.6	15	-17	5	4	5517	-3
CSc1ccc(S(=O)(=O)NCC(=O)OCC(=O)N(C)CC(=O)Nc2ccc(F)cc2)cc1[N+](=O)[O-]	5.4	2	-12	17	14	3410	.
Cn1cnnc1SCC(=O)Nc1ccccc1Oc1ccccc1	3.5	3	-19	-7	-11	3873	-4
OCC1OC(O)C(O)C1O (configuration not stated)	1.9	-1	.	2	-9	.	.

Following part.
compound	RN4220 kill	ugtP null kill	PrP 5UTR inh	Mtb hypoxia inh	Mtb hypoxia inh growth	Autofluor counter	BJeLR viability
CCCCSC1=NN1c1nc(N)nc(C)c1CC	4.1	-8	-26	15	8	22245*	9
O=C(OCC(=O)N1CCCC1)c1ccc(O)cc1	.	.	-8	.	.	5112	-2
COc1cc(-c2cc(=O)c3c(O)c(OC)c(OC)c(O)c3o2)ccc1O	6.4	-6	21	.	.	5596	-6
O=Nc1c2cc3ccccc3[nH]c-2c2ccccc12	2.7	-14	-82	9	11	3450	.
O=C(Nc1ccccc1)c1ccc(NCc2cccnc2)c(S(=O)(=O)N2CCOCC2)c1	2.1	-2	-62	5	7	10036	-10
CN(Cc1ccc(C(C)(C)C)cc1)C(=O)c1ccc2c(=O)n3c(nc2c1)CCC3	3.7	0	-23	-4	8	5771	8
CC(C)OP(=O)(OC(C)C)C(Nc1ccccc1)c1cccc2c1OCO2 (configuration not stated)	-0.2	3	-10	4	-4	2246	-9
Cc1cc(C(=O)COC(=O)c2cccs2)c(C)n1-c1c(C)n(C)n(-c2ccccc2)c1=O	-0.8	5	-17	7	9	8884	3
O=C(NCc1n[nH]c(=S)n1-c1ccccc1Cl)c1ccc(S(=O)(=O)N2CCCCC2)cc1	-0.9	-1	3	-11	3	3671	-2
CCCc1cc(=O)n2[nH]c(SCc3ccccc3)nc2n1	1.7	2	-24	3	10	5815	2
C=CCN(C(=O)c1cccc(S(=O)(=O)N2CCN(C)CC2)c1)c1nc(-c2ccccc2)cs1	-0.1	-3	-30	.	.	4495	-1
Cc1cc(Br)ccc1OCCn1ccnc1	9.3	0	-15	6	11	8745	-7
Cc1cccc(OCc2ccc(C(=O)N3CCOCC3)o2)c1	2.2	7	-11	13	17	5716	-6

Assay outcomes (PubChem BioAssay)
